# E coli growth – E. coli growth inhibition; Escherichia coli growth, OD600, 23 h; active compounds read low; AID 1053175; 330,000 compounds, 0.21% hits; OD600 absorbance (concentration not given with the values);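 active = OD600 absorbance below the run mean of sample wells minus 3.6 SD, in any replicate, cut at about 0.56 in these data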;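 note: stock transfer was 300 nL into about 60 µL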
# UCH37 DUB inh – inhibitors of human deubiquitinating enzyme UCH37; Q9Y5K5; purified proteasome/UCH37, Ub-AMC cleavage fluorescence; inhibition, % (test concentration not listed); 330,000 compounds, 0.33% hits;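 active = mean of two replicates above 20%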;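 note: 0% = compound-free wells with enzyme and 100% = wells lacking proteasome; stock transfer was 100 nL into about 20 µL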
# Target sequence (Q9Y5K5 whole entry, looked up): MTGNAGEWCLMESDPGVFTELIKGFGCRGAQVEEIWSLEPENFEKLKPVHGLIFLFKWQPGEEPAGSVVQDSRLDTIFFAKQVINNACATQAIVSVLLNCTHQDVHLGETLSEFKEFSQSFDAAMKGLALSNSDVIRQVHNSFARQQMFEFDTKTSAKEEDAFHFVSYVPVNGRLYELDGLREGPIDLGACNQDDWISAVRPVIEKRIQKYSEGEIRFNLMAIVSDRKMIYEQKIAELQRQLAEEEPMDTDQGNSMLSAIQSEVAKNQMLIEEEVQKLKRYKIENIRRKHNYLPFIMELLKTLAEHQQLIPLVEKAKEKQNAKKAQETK
#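 Test system – human UCH37 enzyme supplied as purified proteasome complex · Incubation – 30 min preincubation with enzyme, 25 min cleavage at room temperature · Detection – AMC fluorescence from Ub-AMC cleavage, excitation 355 nm, emission 460 nm · Benchmarks – no-proteasome wells (full inhibition) and compound-free wells (no inhibition)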
# An asterisk follows results filed as active. These rows are one share of the data; rates above refer to the full screens.
SMILES	E coli growth	UCH37 DUB inh
COc1cc([N+](=O)[O-])cc(C=NNC(=O)C(C)Nc2cccc(C)c2)c1O (centres undefined)	0.67	7.6
S=c1[nH]nc(-c2cccc(Cl)c2)n1N=Cc1ccco1	0.7	3.0
CSc1ccc(C=NNC(=O)c2cc(O)cc(O)c2)cc1	0.71	-0.7
C(=NN1CCN(C(c2ccccc2)c2ccccc2)CC1)c1ccc2c(c1)OCO2	0.74	3.3
COc1cc(C=NNC(=O)c2ccc3c(c2)OCCO3)cc(Cl)c1O	0.7	8.3
C=CCNC(=S)NN=C(C)c1ccc(OC)cc1	0.7	2.3
COc1ccc(C=NNc2ccc(C(=O)O)cc2)c(OC)c1OC	0.68	9.0
Cc1nn(-c2ccccc2)c(C)c1C=NNC(=O)c1ccc(F)cc1	0.65	-0.1
O=C(CCC(=O)Nc1ccccc1Cl)NN=Cc1ccccc1	0.7	3.4
O=C(NN=Cc1cccnc1)c1ccc(NC(=O)C(c2ccccc2)c2ccccc2)cc1	0.72	5.3
CN(C)C=Nc1cc(=O)n(C)c(=O)n1Cc1ccccc1	0.68	1.9
O=C(NN=Cc1ccc(OCc2ccccc2)cc1)c1ccco1	0.67	-2.6
CCOc1ccc(S(=O)(=O)Nc2ccccc2C(=O)NN=Cc2c(OC)ccc3ccccc23)cc1	0.64	-9.1
Cc1ccc(C=NNc2ccc(C(=O)O)cc2)s1	0.7	12
Cn1c(=O)c2nnn(N=C(c3ccccc3)C3CC3)c2n(C)c1=O	0.74	34*

# (more compounds)
SMILES	E coli growth	UCH37 DUB inh
O=C(O)CC1S/C(=N/N=Cc2ccc(-c3ccccc3[N+](=O)[O-])o2)NC1=O (centres undefined)	0.69	26*
O=C(/C=C1\NC2(CCCC2)Cc2ccccc21)C(=O)NN=Cc1ccc(O)c(O)c1	0.68	4.1
COc1cc(C=NNC(=O)C2COc3ccccc3O2)cc(OC)c1OC (centres undefined)	0.7	-0.8
COc1ccc(C=Nn2c(C3CCCCC3)n[nH]c2=S)c(OC)c1	0.67	6.0
COc1cc(C=NNC(=O)c2cc(-c3c(C)nn(-c4ccccc4)c3C)n[nH]2)ccc1O	0.66	-0.4
Cc1ccsc1C=NNC(=O)CN1CCN(S(=O)(=O)c2ccc(Br)cc2)CC1	0.7	2.4
CC(=NNc1nc2c(s1)CCCC2)c1ccc(Cl)cc1	0.66	-2.9
O=C(CON=Cc1ccc(OC(F)F)cc1)NC1CCCC1	0.7	1.6
CCOc1ccc(C(=O)NN=C(c2ccccc2)c2ccccn2)cc1	0.73	2.0
CC(C)C(NC(=O)c1ccc2c(c1)OCO2)C(=O)NN=Cc1cccs1 (centres undefined)	0.69	1.4
O=C(NN=Cc1ccccn1)c1cc(-c2ccc(Br)cc2)nc2ccccc12	0.72	1.3
CC(CC(=O)Nc1c(C)cc(C)cc1C)=NNC(=O)OC(C)(C)C	0.63	0.0
Cn1cccc1C=NN1CCN(c2ccccc2)CC1	0.7	3.3
CCOc1cc(C=NNC(=O)C(=O)N2CCCC2)ccc1O	0.65	7.8
CN(N=Cc1cccc(Br)c1)C1=NS(=O)(=O)c2ccccc21	0.68	-28

# Remaining list, next part:
SMILES	E coli growth	UCH37 DUB inh
COc1cc(C=NNC(=O)C[n+]2ccccc2)cc(OC)c1OC(C)=O	0.71	-0.2
COc1cc(C=NNC(=O)Cn2nnc3ccccc32)ccc1O	0.71	2.2
Brc1ccc(-c2ccc(C=NNc3nncc(-c4ccccc4)n3)o2)cc1	0.75	7.8
COc1ccc(-c2nn(-c3ccccc3)cc2C=NNS(=O)(=O)c2ccccc2)cc1	0.8	4.8
CCOC(=O)NN=C(C)c1ccc([N+](=O)[O-])o1	0.52	8.9
Nc1ccccc1C(=O)NN=C1C2CN3CCN(C2)CC1(Cc1ccccc1)C3	0.68	-141
Cc1ccc(C(C)C)c(OCC(=O)NN=CC2CCCCC2)c1	0.7	3.6
C=CCNC(=S)N=c1ccccn1C	0.73	6.2
COc1ccccc1/C=C/C=NNC(=O)c1cnccn1	0.62	18
NC(=NO)c1ccc([N+](=O)[O-])s1	0.53	8.9
CCOc1ccccc1C=NNc1ccccc1[N+](=O)[O-]	0.63	2.6
CN1CCN(C(=NO)c2nonc2N)CC1	0.73	1.3
COc1ccccc1OCCn1cc(C=Nn2cnnc2)c2ccccc21	0.61	-39
COc1ccc(/C=C(\NC(=O)c2ccccc2)C(=O)NN=Cc2sccc2C)cc1	0.69	4.0
CC(=NNC(=O)c1cc(Br)ccc1O)c1cccc(NC(=O)c2ccccc2F)c1	0.73	-3.1

# Next part
SMILES	E coli growth	UCH37 DUB inh
Cc1ccc(C=NN2C(=O)c3ccccc3NC2c2ccc(C)cc2)cc1 (centres undefined)	0.67	-11
O=C(O)c1cc(NN=C/C=C/c2ccccc2[N+](=O)[O-])ccc1Cl	0.69	15
COc1cccc(-c2sc3ccc(OC)cc3c2-c2ccc(OCCN3CCCC3)cc2)c1	0.6	2.8
CC1(C)C2CC(=NO)C(C)(/[N+]([O-])=C/c3cccc([N+](=O)[O-])c3)CC21 (centres undefined)	0.63	2.0
CC(=NN=C(N)N)c1ccc(C)c(C)c1	0.61	1.5
Oc1ccccc1C=NNc1nn[nH]n1	0.67	0.5
CCOc1cc(C=NNc2nc(N3CCCC3)nc(N3CCCC3)n2)ccc1O	0.66	0.7
O=C(CNC(=O)c1ccccc1O)NN=Cc1ccccn1	0.64	4.3
C=CCNC(=S)NN=Cc1cn(C)c2ccccc12	0.69	6.6
COc1ccc(CC(=O)NCC(=O)NN=Cc2cc(Br)ccc2OC)cc1	0.7	-4.3
COc1ccc(-c2csc(N=CN(C)C)n2)cc1OC	0.69	6.2
CCCCCOCC1CC(CC(C)=NNC(N)=S)C(=O)O1 (centres undefined)	0.7	1.2
CCCCNC(=S)NN=Cc1ccc(C)s1	0.68	2.2
COc1ccc(C=Nc2oc(-c3ccccc3)cc2C#N)cc1OC	0.7	-5.8
O=c1c2c(-c3ccccc3)csc2ncn1N=Cc1c2ccccc2cc2ccccc12	0.74	3.6

# Reformatted as labelled records: part of the list above
compound: O=C(O)c1cc(NN=C/C=C/c2ccccc2[N+](=O)[O-])ccc1Cl
  E coli growth: 0.69 | UCH37 DUB inh: 15
compound: COc1cccc(-c2sc3ccc(OC)cc3c2-c2ccc(OCCN3CCCC3)cc2)c1
  E coli growth: 0.6 | UCH37 DUB inh: 2.8
compound: CC1(C)C2CC(=NO)C(C)(/[N+]([O-])=C/c3cccc([N+](=O)[O-])c3)CC21 (centres undefined)
  E coli growth: 0.63 | UCH37 DUB inh: 2.0
compound: CC(=NN=C(N)N)c1ccc(C)c(C)c1
  E coli growth: 0.61 | UCH37 DUB inh: 1.5

# Arranged by molar mass (ascending): 3 of the compounds above
SMILES	E coli growth	UCH37 DUB inh
NC(=NO)c1ccc([N+](=O)[O-])s1	0.53	8.9
COc1ccc(C=Nn2c(C3CCCCC3)n[nH]c2=S)c(OC)c1	0.67	6.0
COc1cc(C=NNC(=O)C[n+]2ccccc2)cc(OC)c1OC(C)=O	0.71	-0.2

# (further entries)
SMILES	E coli growth	UCH37 DUB inh
Cc1ccc(OCC(=O)NN=Cc2cc([N+](=O)[O-])ccc2N2CCCCC2)cc1	0.72	-1.8
NC(=O)NN=Cc1ccc(-c2cccc(C(F)(F)F)c2)o1	0.65	3.8
O=C(O)c1ccc(NN=Cc2cn(-c3ccccc3)nc2-c2cccs2)cc1	0.68	-56
C[n+]1cccc(C=NNC(=O)CC23CC4CC(CC(C4)C2)C3)c1	0.68	3.3
O=C(NN=Cc1cccc([N+](=O)[O-])c1)c1nc2ccccc2c(=O)[nH]1	0.71	6.8
COc1ccc(C2c3c(ccc4ccccc34)Oc3ncn4nc(CON=Cc5ccccc5)nc4c32)cc1 (centres undefined)	0.75	1.9
COc1ccccc1C=NNC(=O)c1ccc2c(c1)OCO2	0.66	2.8
CC(CC(=O)Nc1ccc(Cl)cc1C(F)(F)F)=NNC(=O)c1ccccn1	0.64	-1.0
O=S1(=O)N=C(N(CCO)N=C/C=C/c2ccccc2)c2ccccc21	0.7	-6.0
Nc1nnnn1N=Cc1ccccc1OCc1ccc(Cl)cc1Cl	0.72	1.0
CCC(=NNc1cccc(Cl)c1)c1cnnc(SC)n1	0.68	0.7
C[n+]1cccc(C=NNc2nc(Cl)c(C#N)c(Cl)c2Cl)c1	0.62	15
O=C(CP(=O)(c1ccccc1)c1ccccc1)NN=Cc1cc(Br)cc(Br)c1O	0.62	-5.6
Cn1cc(C(=O)NN=Cc2cccc(O)c2)ccc1=O	0.68	5.8
COc1cccc(C=NNC(=O)c2ccc(COc3ccc(Cl)cc3Cl)o2)c1	0.73	2.8

# (list continues)
SMILES	E coli growth	UCH37 DUB inh
CC(=NNC(=O)C(=O)NN=C(C)c1ccccc1)c1ccccc1	0.72	1.0
O=C(CSc1nc2ccccc2n1Cc1ccccc1)NN=Cc1ccccc1C(=O)O	0.73	4.6
Cc1ccc(NCC(=O)NN=Cc2ccc(OC(=O)c3ccco3)cc2)cc1	0.66	1.7
O=C(O)COc1ccc(Br)cc1C=NO	0.69	2.2
Cc1ccccc1OCC(=O)NN=Cc1ccc2c(c1)OCCO2	0.65	6.5
O=C(Cn1cnc2ccccc21)NN=Cc1ccccc1[N+](=O)[O-]	0.64	4.5
COc1ccc(C=NNC(=O)c2nc(-c3ccccc3)n(-c3ccccc3)n2)cc1OC	0.65	-15
O=C(NC(=O)c1c(F)cccc1F)ON=C1CCCc2occc21	0.61	-1.7
COc1ccc(C(C)=NNC(=O)CCC(=O)Nc2ccc(Cl)cc2Cl)c(OC)c1	0.72	-0.6
O=P(C(=NO)Sc1ccccc1)(N1CCOCC1)N1CCOCC1	0.65	1.7
COc1cc(C=NNC(=O)c2cccnc2)cc2c1OCO2	0.72	9.2
CCON=C(N)c1[nH]ncc1Br	0.62	3.0
COc1cc(C=NNC(=O)CC2(C)OCCO2)cc(Br)c1O	0.67	-77
COc1ccc(C=NNC(=O)c2cccc([N+](=O)[O-])c2)cc1OC(=O)c1ccccc1	0.72	3.6
O=[N+]([O-])c1ccc(Cl)c(C=NNC(=S)Nc2ccccc2)c1	0.77	2.1

# (continued)
SMILES	E coli growth	UCH37 DUB inh
O=C(NN=Cc1cccc([N+](=O)[O-])c1)c1cnccn1	0.72	6.5
O=C(NN=Cc1ccc([N+](=O)[O-])cc1)c1ccc2nc[nH]c2c1	0.7	7.6
Cc1ccc(S(=O)(=O)N(CC(=O)NN=Cc2ccco2)Cc2ccccc2)cc1	0.7	3.9
Nc1nonc1-c1nc2ccccc2n1CC(=O)NN=Cc1ccc(-c2ccc(Cl)cc2)o1	0.69	-43
ON=C(c1ccccc1)c1cc2cc(Br)cc(Br)c2o1	0.67	-1.1
CC(C)(C)c1ccc(C=NNc2ccc(C(=O)O)cc2)cc1	0.69	9.3
O=C(NN=C/C=C/c1ccccc1)c1cccnc1	0.66	9.3
CCOc1cccc(C=NNC(=S)NCCN2CCOCC2)c1O	0.64	-21
CCOC(=O)NN=Cc1c[nH]c2ccccc12	0.69	-1.0
CC(=NNC(=O)COc1c(C)cccc1C)c1cccs1	0.71	-1.1
Cc1ccc2[nH]c3nc(NN=Cc4cccc(O)c4)nnc3c2c1	0.66	7.6
O=C(NN=Cc1ccnc2ccccc12)c1ccccc1O	0.62	8.5
O=C(Cc1n[nH]c(=O)c2ccccc12)NN=Cc1cc2c(cc1Cl)OCO2	0.68	-16
Cc1c(C(=O)NN=Cc2cccs2)nnn1-c1nonc1N	0.66	3.7
Cc1ccc(-c2cc(C(=O)NN=Cc3c[nH]c4ccccc34)n[nH]2)o1	0.67	-1.9

# The list goes on.
SMILES	E coli growth	UCH37 DUB inh
O=[N+]([O-])c1ccccc1C=NNC1=NCCN1	0.68	6.2
COc1nc(NN=Cc2ccccc2F)nc(N2CCCCC2)n1	0.72	-1.0
O=C(CN1C(=O)NC2NC(=O)NC21)NN=Cc1ccccc1F (centres undefined)	0.73	2.6
O=C(CNC(=O)c1ccccc1F)NN=C/C=C/c1ccccc1	0.68	0.5
COc1cc(C=NN2CCN(c3ccccc3OC)CC2)ccc1OC(C)=O	0.67	-1.2
Cc1ccc(C=NN2CCN(Cc3ccc(Cl)cc3)CC2)o1	0.69	-0.4
O=C(NN=Cc1cccnc1)c1cc2c(ccc3ccccc32)o1	0.72	-5.3
COc1ccc(CNC(=O)C[C@H]2C[C@H](C(=O)N3CCCCC3)[C@@]3(CCc4ccccc4)c4[nH]c5cc(-c6ccco6)ccc5c4CCN3C2=O)cc1OC	0.72	-21
O=C(NN=Cc1cccc(O)c1)c1ccccc1O	0.71	4.0
CN(C)N=C/C=C1\CC/C(=C\c2ccc(F)c(F)c2)C1=O	0.7	5.7
COc1c(C=NNC(=O)[C@H]2C[C@@H]2c2ccccc2)c(CCN(C)C(C)=O)cc2c1OCO2	0.69	7.6
CC(=NNC(=O)c1nnn(-c2nonc2N)c1-c1cccs1)c1cccnc1	0.67	5.2
Clc1ccc(-c2csc(NN=Cc3ccc4c(c3)OCO4)n2)cc1	0.73	-25
COc1ccc(C=NNC(=O)c2cccc(C(F)(F)F)c2)cc1	0.73	5.0
COC(=O)c1ccc(-n2c(C)cc(C=NNc3nc(C)cc(=O)[nH]3)c2C)cc1	0.73	-21
CC(=NNC(=O)Cn1c(-c2ccccn2)nc2ccccc21)c1ccccc1	0.72	3.9
C(=NNc1nncc2ccccc12)c1ccccn1	0.49*	11
COc1ccc(C=NNC(=O)CSCC(=O)Nc2ccccc2)cc1	0.63	2.5

# Screens (PubChem)
